# Compound activity as filed in PubChem BioAssay.
# StopGo RLuc – FMDV 2A StopGo reporter, Renilla signal | HEK cells with a luciferase reporter of 2A StopGo recoding | Potency, µM (titrated, usually from 57.5 µM), for the others: at the top dose signal change, negative = less light | actives 0.32% (n = 120,000) | AID 1745857; active means well fitted falling curve with a large enough effect; inconclusive means small, poorly fitted or top-dose-only effect; inactive means no such curve, though single readings can be large or run the other way; further: nearly all actives have a fitted effect of over 55% in size; overnight with compound
# StopGo FLuc – lowers the firefly signal of an FMDV 2A StopGo reporter; HEK cells with a luciferase reporter of 2A StopGo recoding; Potency, µM (doses to about 57.5 µM), for inactives: top-dose signal change, negative = less light; actives 0.23% (n = 120,000); AID 1745856; active = well fitted falling curve with a large enough effect; inconclusive = small, poorly fitted or top-dose-only effect; inactive = no such curve, though single readings can be large or run the other way; further: nearly all actives have a fitted effect of over 60% in size; overnight with compound
# The depositor's hits bear a star; u = inconclusive; [ ] = another dose, or the depositor's remark. On the % scale 0 is the no-effect control and ±100 the full control effect; potency means the concentration at half of the fitted maximal effect. These rows are one share of the data; rates above refer to the full screens.
SMILES,StopGo RLuc,StopGo FLuc
Cc1ccccc1OCCC(=O)OCC(=O)Nc1ncc(Cl)cc1Cl,-13%,-9%
CCn1c(CC(=O)Nc2ccc(C)cc2)nnc1SCC(=O)Nc1ccc(F)cc1,6%,-2%
CCc1ccc(CNC(=O)c2c(C)oc3nc(C)nc(N4CCCC4)c23)cc1,-9%,-9%
COc1ccc2[nH]cc(C(C(=O)O)N3CCN(C4=Nc5ccccc5Oc5ccccc54)CC3)c2c1 (centres undefined),-8%,20%
CC(=O)N1CCOc2cc(S(=O)(=O)NCc3ccc(C)cc3)c(C)cc21,87%[activator],-21%
Cn1c(=O)c2c(nc(NCc3ccc(S(N)(=O)=O)cc3)n2Cc2ccccc2)n(C)c1=O,1%,-4%
COc1ccc(CNC(=O)CCCn2c(SCC(N)=O)nc3cc4c(cc3c2=O)OCO4)cc1,-6%,-20%
Cc1ccc(Cl)cc1Nc1nc2ccccc2n2c(C)nnc12,-4%,-5%
Cc1ccc(N2C(=O)[C@@H]3CSC(c4ccc(F)cc4)N3C2=O)cc1 (some centres undefined),-5%,13%
Cc1ccc(CNC(=O)CSc2c(C)cnc3c2c(=O)n(C)c(=O)n3C)cc1,-7%,-16%
CCOc1ccccc1NC(=O)CSc1nnc(CC)c(CC)n1,14%,0%
COc1cc(C#N)ccc1OC(C)c1ccccc1Cl (centres undefined),u,85%[activator]

# Whole records, quoted from the list.
# Profile of CCn1c(CC(=O)Nc2ccc(C)cc2)nnc1SCC(=O)Nc1ccc(F)cc1 → StopGo RLuc = 6%; StopGo FLuc = -2%
# Profile of COc1cc(C#N)ccc1OC(C)c1ccccc1Cl (centres undefined) → StopGo RLuc = u; StopGo FLuc = 85%[activator]
# Profile of Cn1c(=O)c2c(nc(NCc3ccc(S(N)(=O)=O)cc3)n2Cc2ccccc2)n(C)c1=O → StopGo RLuc = 1%; StopGo FLuc = -4%

# Further records
SMILES,StopGo RLuc,StopGo FLuc
O=c1nc(-c2ccc(Cl)cc2)c2ccccc2[nH]1,-16%,-8%
COc1ccc(NS(=O)(=O)c2ccc3oc(SCC(=O)N4CCCCCC4)nc3c2)cc1,150%[activator],-17%
Cc1ccc(C)c(NC(=O)COc2ncnc3ccccc23)c1,-4%,-8%
COc1ccc(Oc2coc3cc(OCc4ccccc4C)ccc3c2=O)cc1,-1%,19%
CCOc1ccc(-c2csc(-c3ccc(Cl)cc3)n2)cc1,5%,21%
C=C1C[C@@H]2[C@H](CC[C@]3(C)C(=O)CC[C@@H]23)[C@@]2(C)C=CC(=O)C=C12,9%,0%
Cc1c(C(=O)OCC2CCCCC2)[nH]c2c1C(=O)CC(c1ccc(F)cc1)C2 (centres undefined),-7%,-12%
O=C(Nc1ccc2nc(SCc3ccccc3)sc2c1)C1CCCCC1,-1%,38%[activator]
CCCCCCN1CCS(=O)(=O)N(Cc2ccc(Cl)cc2)C(C(=O)OC)C1 (centres undefined),-16%,-10%
O=C(CN1CCOCC1)Nc1ccc(NC(=O)c2nc(-c3ccccc3)n(-c3ccccc3)n2)cc1,-8%,6%
Cc1ccc(-c2cc(C(=O)O)c3cc(Br)ccc3n2)cc1,6%,158%[activator]
Cc1ccc(C)c(N2CCN(C(=O)c3ccc4c(c3)nc3n4CCCC3)CC2)c1,u,-23%

# A draw from above in order of count of non-hydrogen atoms, ascending:
SMILES,StopGo RLuc,StopGo FLuc
Cc1ccc(N2C(=O)[C@@H]3CSC(c4ccc(F)cc4)N3C2=O)cc1 (some centres undefined),-5%,13%
Cc1ccccc1OCCC(=O)OCC(=O)Nc1ncc(Cl)cc1Cl,-13%,-9%
COc1ccc(Oc2coc3cc(OCc4ccccc4C)ccc3c2=O)cc1,-1%,19%

# Additional entries
SMILES,StopGo RLuc,StopGo FLuc
O=C(CCNc1nc(Cl)nc2nc[nH]c12)NCCc1c[nH]c2ccc(Cl)cc12,6%,11%
COc1cc(C)ccc1OCCn1c(-c2ccc(Cl)cc2)nc2ccccc2c1=O,-5%,-20%
CCCN1CCCc2cc(CN(CCCN3CCOCC3)C(=O)Nc3ccc(Cl)c(Cl)c3)ccc21,-15%,-11%
Cc1ccc(NC(=O)CN(c2cc(C(F)(F)F)ccc2Cl)S(C)(=O)=O)cc1C,7%,-6%
COc1cccc(CN(C)CC(=O)NC(=O)NC2CCCC2)c1OC,5%,44%[activator]
CCn1cc(C(=O)N2CCN(c3cccc(Cl)c3)CC2)c(=O)c2cc(S(=O)(=O)N3CCOCC3)ccc21,9%,16%
CCOc1ccc(NC(=O)c2sc(-n3nc(C)c(Cc4ccc(Cl)cc4)c3C)nc2C)cc1,-9%,-12%
Cc1cccc(Nc2nc(-c3ccccc3)c3cc(C)ccc3n2)c1,-18%,0%
COc1ccc(CCNC(=O)c2cnc3sc(N4CCCCCC4)nn3c2=O)cc1OC,-11%,-11%
CC(=O)c1cnn(-c2cc(Nc3ccc(F)cc3F)nc(C)n2)c1C,14%,31%
NC(=O)Cn1c(=O)n(-c2ccc(F)c(Cl)c2)c(=O)c2sc3ccccc3c21,3%,-3%
C[C@]12CCC(=O)C=C1CC[C@H]1[C@@H]3CC[C@](O)(C(=O)CO)[C@@]3(C)C[C@H](O)[C@@]12F,10%,1%
O=C(c1c[nH]c2ccccc12)C(Sc1ncc(C(F)(F)F)cc1Cl)c1ccccc1 (centres undefined),u,u
Fc1nc(F)c(F)c(Sc2nc3ccccc3s2)c1F,10%,57%[activator]
COc1ccc(NC(=O)CCS(=O)(=O)c2cc3c4c(c2)CCN4C(=O)CC3)cc1OC,-8%,10%
CCCSc1ncc(Cl)c(C(=O)Nc2c(C(=O)Nc3ccc(OC)cc3)oc3ccccc23)n1,-6%,0%
Cc1cc(C)cc(N2CC(c3nnc(NC(=O)c4cccc(NC(=O)C(C)C)c4)s3)CC2=O)c1 (centres undefined),20%,16%
O=C(CSc1ncnc2ccccc12)N(Cc1ccccc1)Cc1ccccc1,-10%,-21%
Cc1ccc(F)cc1NC(=O)NCCc1coc(-c2ccccc2)n1,123%[activator],32%
CC(C)COc1ccc(C(=O)Nc2ccc(O)c(-c3nc4ccccc4o3)c2)cc1,5%,12%
O=C(CSc1cn(CCNC(=O)c2ccccc2F)c2ccccc12)Nc1ccc(F)cc1,86%[activator],-14%
CCc1ccc(CNC(=O)c2cnc3sc(N4CCCCCC4)nn3c2=O)cc1,-16%,-16%
C=CCn1c(NCCCOC)nc2c1c(=O)n(C)c(=O)n2C,4%,2%
CC(C)(C)c1nc2c3cnn(-c4ccc(F)cc4)c3ncn2n1,-2%,188%[activator]
COc1ccc(N2CCN(C(=O)CN3CCSc4ccccc43)CC2)cc1,10%,17%
COc1ccc(OC)c(NC(=O)[C@H]2C[C@H]([C@@H](C)O)N[C@]23C(=O)Nc2c(C)cc(Cl)cc23)c1,-3%,-1%
CCn1c(-n2nc(C)cc2C)nc2c1c(=O)n(Cc1ccc(F)cc1)c(=O)n2C,-4%,0%
COc1ccc(C(=O)N2CCC(c3nc(-c4ccc(S(=O)(=O)N5CCCC5)cc4)no3)CC2)cc1,-1%,-15%
CC(=O)Nc1ccc(-c2csc(Nc3cccc4ccccc34)n2)cc1,7%,42%[activator]
CCOc1ccc(C(C)=O)cc1COC(=O)c1cc(Cl)c(OC)c(OC)c1,15%,12%
CCCn1c(N)c(-c2csc(Nc3ccc(F)cc3)n2)c(=O)n(C)c1=O,5%,-12%
O=C(NCCS(=O)(=O)N1CCN(c2ccccc2F)CC1)c1cc(=O)c2ccccc2o1,-9%,-12%
CC(NC(=O)c1cc2ccccc2oc1=O)c1cccs1 (centres undefined),17%,185%[activator]
COc1ccc(NC(C)C(=O)N(C)Cc2cccc(F)c2)c(OC)c1 (centres undefined),12%,1%
COc1ccccc1CNC(=O)c1nn(C)c(=O)c2ccccc12,9%,5%
CCn1cc2nc(SCc3cccc(C)c3)n(CCc3ccccc3)c(=O)c2n1,-23%,-25%
Cc1cc(C(=O)COC(=O)c2ccc(CO)cc2)c(C)s1,4%,-1%
CC(=O)c1ccc(N2CCN(c3ccc4cc(S(=O)(=O)N5CCCCC5)ccc4n3)CC2)cc1,10%,17%
CC(C)(CNC(=O)NCc1nc2ccccc2s1)N1CCOCC1,-1%,41%[activator]
O=C(CSc1nc2nccnc2c(=O)n1CCc1c[nH]c2ccccc12)Nc1ccccc1,-17%,0%
N#Cc1ccccc1OC(=O)/C=C/c1ccco1,7%,11%
Cc1ccc(C)c(OCc2ccc(-c3nc(C#N)c(NC(C)C)o3)o2)c1,-2%,-5%
Cc1ccc(SCCNC(=O)c2nccnc2N)cc1,22%,88%[activator]
O=C(Nc1ccc2nc3n(c(=O)c2c1)CCCCC3)c1cccc(C(F)(F)F)c1,-12%,10%
COc1cccc(CCNS(=O)(=O)c2cc(N3C(=O)C(C)(C)CS3(=O)=O)ccc2OC)c1,0%,-5%
CC(OC(=O)c1ccc(CCNS(C)(=O)=O)cc1)C(=O)N(C)C (centres undefined),-6%,2%
COc1ccc(OC)c(CN2CCN(C(=O)c3cn(C)nc3-c3ccc4c(c3)OCCCO4)CC2)c1,11%,5%
Cc1cccc(NC(=O)c2cc(CN3CCOCC3)on2)c1C,-5%,-9%
Cc1ccc2c(c1)N(S(=O)(=O)c1cc(-c3onc(C)c3C)ccc1C)CCO2,u,u
CC(C)CC(=O)Nc1ccc(S(=O)(=O)Nc2cc3c(cc2N2CCOCC2)n(C)c(=O)c(=O)n3C)cc1,164%[activator],2%
COc1cc(NC(=O)CN2C(=O)C(c3ccc(C)cc3)=NC23CCCCC3)cc(OC)c1,-22%,u
CC(C)CC(=O)NCC(c1ccc2c(c1)OCO2)N1CCN(c2ccccc2)CC1 (centres undefined),-6%,-13%
Fc1ccc(-c2noc3ncnc(NCCCN4CCN(c5ccccc5)CC4)c23)cc1,-1%,-14%
Cc1noc(C)c1S(=O)(=O)N(CC(=O)NCc1ccccc1Cl)c1ccc(C(C)C)cc1,34%[activator],u
COC(=O)C1=C(C)OC(=O)C1(NC(=O)c1ccc(C(C)(C)C)cc1)C(F)(F)F (centres undefined),-1%,0%
O=C(CSc1nc2ccccc2nc1N1CCCC1)N1CCN(c2ccc(F)cc2)CC1,5%,4%
CCCCCCC(=O)CCCCCC/C=C/C[C@@H](O)[C@H](O)[C@@](N)(CO)C(=O)O,-7%[23.8 µM],-13%[27 µM]
CCCN(Cc1cc2ccc(C)cc2[nH]c1=O)S(C)(=O)=O,2%,3%
CCC(C)OC(=O)COc1ccc2c(=O)c(Oc3ccc(C(C)(C)C)cc3)coc2c1 (centres undefined),9%,10%
O=C(O)C(c1c[nH]c2cc(F)ccc12)N1CCN(C(c2ccccc2)c2ccccc2)CC1 (centres undefined),-22%,-22%

# Later entries
SMILES,StopGo RLuc,StopGo FLuc
O=C(OCc1nnnn1-c1ccccc1)C1(c2ccccc2)CC1,8%,6%
COCCNc1oc(-c2ccccc2F)nc1S(=O)(=O)c1ccc2c(c1)OCCO2,0%,16%
COc1ccc(OC)c(C(=O)COC(=O)Cc2ccc(Cl)cc2)c1,6%,0%
Cc1ccc2nc(NC(=O)CSc3cc(C)[nH]c(=O)n3)sc2c1,1%,346%[activator]
COc1cccc(C(=O)c2oc3cc(NC(C)=O)ccc3c2C)c1,50%[activator],0%
Cc1ccc2c(CSc3ncn[nH]3)cc(=O)oc2c1,-4%,54%[activator]
COc1ccc(Cl)cc1NC(=O)N1CCC(CN2CCc3ccccc3C2)CC1,-20%,-25%
Cn1c(CN2CCCCC2)nc2cc(NC(=O)c3ccc(Cl)cc3)ccc21,0%,-17%
Cc1ccc(N2CCN(C(=O)c3nn(C)c4c3CS(=O)(=O)c3ccccc3-4)CC2)c(C)c1,9%,-22%
O=C(CC1(C(=O)O)CCCCCC1)Nc1cccc(CO)c1,1%,1%
COc1ccc(Cn2c(C(=O)O)c(CNCc3ccco3)c3ccc(C)cc32)cc1,25%,u
C#CC(C)(C)NS(=O)(=O)c1cc(-c2nnc(Nc3ccc(C)cc3)c3ccccc23)ccc1C,157%[activator],21%
COCCn1c(C)cc(O)c(C(c2ccc(F)cc2)N2CCC(C)CC2)c1=O (centres undefined),41%[activator],-27%
CC/C=C/C(=O)OCc1ccc(C(N)=O)cc1,-2%,0%
CC1CCN(C(NC(=O)c2cccs2)C(=O)c2ccccc2)CC1 (centres undefined),99%[activator],121%[activator]
Cc1cccc(-c2nc(C#N)c(NCc3ccccc3)o2)c1,91%[activator],209%[activator]
CCCCCc1ccc(C(=O)CCN(C)C)cc1,-22%,71%[activator]
CCN1c2ccccc2-c2nc(SCC(=O)NCc3ccc(Cl)cc3)ncc2S1(=O)=O,24%,-14%
CC(C)CCNc1nc(C(=O)OC(C)C(N)=O)cs1 (centres undefined),-4%,26%
COc1ccc(N2CCN(C(=O)CCn3c(=O)[nH]c4cc(OC)c(OC)cc4c3=O)CC2)cc1,-8%,-12%
CCCCOc1cccc(C(=O)N(Cc2sccc2C)C2CCS(=O)(=O)C2)c1 (centres undefined),-29%,0%
Cc1ccccc1CSc1nc2cccnc2n1Cc1ccc(C(=O)NCCc2cccs2)cc1,17%,58%[activator]
COc1ccc(CNC(=O)COC(=O)c2ccc(S(=O)(=O)N3CCCCCC3)cc2)cc1OC,-2%,6%
O=C(Cn1c(=O)n(-c2ccccc2F)c(=O)c2sccc21)NC1CCc2ccccc21 (centres undefined),9%,6%
CCC(=O)Nc1sc2c(c1C(=O)Nc1cccc(C)c1)CCCC2,25%,31%[activator]
CC(=O)c1ccc(N2CCN(c3nc4c(S(=O)(=O)c5ccccc5)nnn4c4ccc(Cl)cc34)CC2)cc1,-3%,-5%
CCOC(=O)c1ccc(Nc2nc(C)cc(C)n2)cc1,30%,22%
Cc1ccc(CCNC(=O)CN(c2ccc(C)cc2)S(=O)(=O)N(C)C)cc1,23%,-3%
Cc1ccc(NC(=O)Cn2cnc3sc(C)c(S(=O)(=O)N4CCN(c5ncccn5)CC4)c3c2=O)cc1F,2%,-4%
